Assay outcomes: PubChem BioAssay, Broad Institute
Env fusion inh – inhibitors of HIV Env-mediated cell fusion; HeLa-JRFL Env/CEM21 cell fusion, luciferase; inhibition, % at 12.3 µM; 360,000 tested, 1.1% active; AID 651610;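 active = mean replicate inhibition score of at least 50 and every replicate individually at or above 50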;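 also: 0% = plate neutral controls and 100% = maraviroc near 300 nM; one replicate is shown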
UUG fidelity – alters start codon recognition fidelity in yeast; activity score, % at 18.7 µM; 350,000 tested, 0.13% active; AID 602363; S. cerevisiae UUG-firefly luciferase reporter, luminescence/redox ratio;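 active = replicate mean at a twofold rise or more, about +100% in these data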;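 also: firefly luciferase made from a UUG start codon reports start codon fidelity; reporter light over untreated wells divided by growth signal over untreated wells; some hits fall short of that in this replicate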
* marks the source's active call; other numbers are inactive results; [ ] = dose if it differs, or a comment. A portion of the library (hit frequency here may not be typical).

Sequence of screens – Env fusion inh	UUG fidelity
N#C[C@@H]1[C@H](c2ccc(-c3cncnc3)cc2)[C@H](CO)N1C(=O)C1CC1
→ 0[16.7 µM]	-3
C[C@@H]1CCCCO[C@H](CN(C)C(=O)Nc2ccc3c(c2)OCO3)[C@H](C)CN([C@H](C)CO)C(=O)c2cc(NC(=O)c3ccccc3)ccc2O1
→ -4[16.7 µM]	11
CCCNC(=O)N(C)C[C@H]1Oc2ncc(C#CC3(O)CCCC3)cc2C(=O)N([C@@H](C)CO)C[C@@H]1C
→ 6[16.7 µM]	3
O=C(NCC[C@@H]1CC[C@H](NC(=O)C2CCOCC2)[C@@H](CO)O1)c1ccc(F)cc1
→ 12[16.7 µM]	-9
C[C@@H]1CN([C@@H](C)CO)C(=O)c2cc(N(C)C)ccc2O[C@H]1CN(C)S(=O)(=O)c1cn(C)cn1
→ 8[16.7 µM]	-1
C[C@H](CO)N1C[C@H](C)[C@H](CN(C)S(=O)(=O)c2ccc(C#N)cc2)Oc2ncc(C#Cc3ccc(F)cc3)cc2C1=O
→ 30[16.7 µM]	2
CS(=O)(=O)Nc1ccc2c(c1)[C@H]1C[C@H](CC(=O)NCc3ccc(-c4ccccc4)cc3)O[C@H](CO)[C@H]1O2
→ 78*[16.7 µM]	16
COc1ccccc1NC(=O)N[C@H]1C=C[C@@H](CC(=O)N[C@@H](C)c2ccccc2)O[C@H]1CO
→ 20[16.7 µM]	3
C[C@@H]1CCCCO[C@@H](CN(C)C(=O)NC2CCCCC2)[C@@H](C)CN([C@H](C)CO)C(=O)c2cc(NC(=O)Cc3ccccc3)ccc2O1
→ -15[16.7 µM]	-5
Cc1noc(C)c1NC(=O)N(C)C[C@H]1OCCCC[C@@H](C)Oc2ccc(NS(=O)(=O)c3cccs3)cc2C(=O)N([C@H](C)CO)C[C@H]1C
→ 12[16.7 µM]	0
Cc1noc(C)c1S(=O)(=O)N(C)C[C@@H]1OCCCC[C@@H](C)Oc2ccc(NC(=O)CCCCCC(=O)Nc3ccccc3N)cc2C(=O)N([C@H](C)CO)C[C@@H]1C
→ 11[16.7 µM]	-6
C[C@@H]1CN([C@H](C)CO)S(=O)(=O)c2ccc(-c3cccnc3)cc2O[C@@H]1CN(C)CC1CC1
→ -6[16.7 µM]	2
CCCN1C[C@H](C)[C@H](OC)CN(C)C(=O)c2cc(NC(=O)c3ccno3)ccc2OC[C@@H]1C
→ 2[16.7 µM]	5
Cc1noc(C)c1S(=O)(=O)Nc1ccc2c(c1)C(=O)N([C@@H](C)CO)C[C@@H](C)[C@@H](CN(C)Cc1ccncc1)OCCCC[C@H](C)O2
→ 1[16.7 µM]	1
C[C@H]1CN([C@@H](C)CO)C(=O)c2cccc(NC(=O)Nc3ccccc3)c2O[C@H]1CN(C)Cc1ccc(-c2ccccc2)cc1
→ -25[16.7 µM]	13
COc1ccc(CN(C)C[C@@H]2OCCCC[C@@H](C)Oc3ccc(NC(=O)Nc4ccc(C(F)(F)F)cc4)cc3C(=O)N([C@@H](C)CO)C[C@H]2C)cc1
→ 58*[16.7 µM]	5
Cc1ccc(S(=O)(=O)N[C@H]2CC[C@@H](CCNC(=O)Nc3ccc(Cl)cc3)O[C@H]2CO)cc1
→ -17[16.7 µM]	0
CN(C)CCCNC(=O)C[C@@H]1CC[C@@H]2[C@H](COc3ccc(NC(=O)c4ccc5c(c4)OCO5)cc3C(=O)N2C)O1
→ -7[16.7 µM]	-7
CCCNC(=O)N(C)C[C@@H]1Oc2ncc(C#CCC(C)C)cc2C(=O)N([C@@H](C)CO)C[C@H]1C
→ -13[16.7 µM]	9
CC(C)NC(=O)NCC[C@@H]1CC[C@H](NC(=O)CN(C)C)[C@@H](CO)O1
→ 26[16.7 µM]	-8

3 of the entries above in order of the UUG fidelity value, high to low:
Sequence of screens – Env fusion inh	UUG fidelity
CS(=O)(=O)Nc1ccc2c(c1)[C@H]1C[C@H](CC(=O)NCc3ccc(-c4ccccc4)cc3)O[C@H](CO)[C@H]1O2
→ 78*[16.7 µM]	16
CCCNC(=O)N(C)C[C@H]1Oc2ncc(C#CC3(O)CCCC3)cc2C(=O)N([C@@H](C)CO)C[C@@H]1C
→ 6[16.7 µM]	3
O=C(NCC[C@@H]1CC[C@H](NC(=O)C2CCOCC2)[C@@H](CO)O1)c1ccc(F)cc1
→ 12[16.7 µM]	-9

Next records
Sequence of screens – Env fusion inh	UUG fidelity
Cc1cc(C(=O)Nc2cccc3c2O[C@@H](CN(C)Cc2ccc(C(F)(F)F)cc2)[C@@H](C)CN([C@@H](C)CO)C3=O)n(C)n1
→ -2[16.7 µM]	1
CCCN(C)C[C@H]1Oc2cc(-c3cccc(C#N)c3)ccc2S(=O)(=O)N([C@H](C)CO)C[C@H]1C
→ -16[16.7 µM]	-7
C[C@@H]1CN([C@H](C)CO)C(=O)c2cccc(NC(=O)c3ccc(-c4nccs4)cc3)c2O[C@@H]1CN(C)S(=O)(=O)c1ccccc1
→ -4[16.7 µM]	10
COc1ccccc1-c1cn(CC[C@@H]2CC[C@H](NC(=O)CCN3CCCCC3)[C@@H](CO)O2)nn1
→ -35[16.7 µM]	1
C[C@@H]1CN([C@H](C)CO)C(=O)c2cc(NS(=O)(=O)c3cn(C)cn3)ccc2O[C@@H]1CN(C)CC1CC1
→ -7[16.7 µM]	5
CO[C@@H]1CN(C)C(=O)c2cc(NC(=O)C3CCC3)ccc2OC[C@@H](C)N(Cc2ccncc2)C[C@H]1C
→ 17[16.7 µM]	-3
CC(C)CC#Cc1ccc2c(c1)O[C@@H](CN(C)C(=O)C1CCCCC1)[C@@H](C)CN([C@@H](C)CO)S2(=O)=O
→ 17[16.7 µM]	-21
C[C@@H]1CN([C@@H](C)CO)S(=O)(=O)c2ccc(-c3ccc(C#N)cc3)cc2O[C@@H]1CN(C)C
→ 10[16.7 µM]	-2
O=C(C[C@@H]1CC[C@H]2[C@@H](COC[C@H](O)CN2S(=O)(=O)c2ccc(F)cc2)O1)NCC1CCCCC1
→ 12[16.7 µM]	7
CCC(=O)N(C)C[C@@H]1Oc2cc(C#CCN(C)C)ccc2S(=O)(=O)N([C@H](C)CO)C[C@@H]1C
→ -12[16.7 µM]	6
CNC(=O)C[C@@H]1CC[C@@H]2[C@H](COc3ccc(NC(=O)Nc4ccc(F)c(F)c4)cc3C(=O)N2C)O1
→ 2[16.7 µM]	0
C[C@H](CO)N1C[C@H](C)[C@@H](CN(C)C(=O)NC2CCCCC2)OCCCC[C@H](C)Oc2ccc(NC(=O)Nc3ccc(F)cc3)cc2C1=O
→ 16[16.7 µM]	2
C[C@@H]1CCCCO[C@H](CN(C)Cc2ccc(C(=O)O)cc2)[C@H](C)CN([C@H](C)CO)C(=O)c2cc(NS(=O)(=O)c3ccc(F)cc3)ccc2O1
→ 4[16.7 µM]	7
COc1ccc(S(=O)(=O)Nc2cccc3c2O[C@H](CN(C)S(=O)(=O)c2cccs2)[C@H](C)CN([C@H](C)CO)C3=O)cc1
→ 13[16.7 µM]	15
CC(=O)N(C)C[C@H]1Oc2cc(C#CC3(O)CCCC3)ccc2S(=O)(=O)N([C@H](C)CO)C[C@H]1C
→ -16[16.7 µM]	4
Cc1noc(C)c1S(=O)(=O)Nc1ccc2c(c1)C(=O)N([C@H](C)CO)C[C@H](C)[C@@H](CN(C)C(=O)Nc1ccc(C(F)(F)F)cc1)OCCCC[C@H](C)O2
→ 44[16.7 µM]	-9
C[C@@H]1CN([C@H](C)CO)C(=O)Cc2cc(N(C)C)ccc2O[C@@H]1CN(C)Cc1ccc(C(=O)O)cc1
→ 16[16.7 µM]	-13
C[C@H](CO)N1C[C@H](C)[C@@H](CN(C)C(=O)c2cccnc2)Oc2cc(-c3cccc(C#N)c3)ccc2S1(=O)=O
→ -8[16.7 µM]	0
CC(C)CC#Cc1ccc2c(c1)O[C@H](CN(C)CC1CC1)[C@H](C)CN([C@@H](C)CO)S2(=O)=O
→ -21[16.7 µM]	11
O=C(C[C@@H]1CC[C@@H]2[C@H](COC[C@H](O)CN2C(=O)Nc2ccc(C(F)(F)F)cc2)O1)NC1Cc2ccccc2C1
→ -72[16.7 µM]	15

Of the compounds above, these have a cyano group.
Sequence of screens – Env fusion inh	UUG fidelity
N#C[C@@H]1[C@H](c2ccc(-c3cncnc3)cc2)[C@H](CO)N1C(=O)C1CC1
→ 0[16.7 µM]	-3
C[C@H](CO)N1C[C@H](C)[C@H](CN(C)S(=O)(=O)c2ccc(C#N)cc2)Oc2ncc(C#Cc3ccc(F)cc3)cc2C1=O
→ 30[16.7 µM]	2
CCCN(C)C[C@H]1Oc2cc(-c3cccc(C#N)c3)ccc2S(=O)(=O)N([C@H](C)CO)C[C@H]1C
→ -16[16.7 µM]	-7
C[C@@H]1CN([C@@H](C)CO)S(=O)(=O)c2ccc(-c3ccc(C#N)cc3)cc2O[C@@H]1CN(C)C
→ 10[16.7 µM]	-2
C[C@H](CO)N1C[C@H](C)[C@@H](CN(C)C(=O)c2cccnc2)Oc2cc(-c3cccc(C#N)c3)ccc2S1(=O)=O
→ -8[16.7 µM]	0

Later entries:
Sequence of screens – Env fusion inh	UUG fidelity
COc1ccccc1NC(=O)N[C@H]1CC[C@H](CCNC(=O)Cc2ccccn2)O[C@@H]1CO
→ -17[16.7 µM]	-5
O=C(N[C@@H]1CC[C@H](CCn2cc(C3(O)CCCC3)nn2)O[C@H]1CO)C1CCC1
→ 18[16.7 µM]	-7
COc1ccc(NC(=O)Nc2ccc3c(c2)C(=O)N([C@H](C)CO)C[C@H](C)[C@@H](CN(C)S(=O)(=O)c2ccc(Cl)cc2)OCCCC[C@@H](C)O3)cc1
→ -10[16.7 µM]	-12
CNC[C@@H]1OCCCC[C@H](C)Oc2ccc(NS(=O)(=O)c3ccc(C)cc3)cc2C(=O)N([C@H](C)CO)C[C@H]1C
→ 15[16.7 µM]	3
C[C@@H]1CN([C@H](C)CO)C(=O)c2cc(N(C)C)ccc2O[C@@H]1CN(C)S(=O)(=O)c1cccs1
→ 18[16.7 µM]	-1
CNC[C@@H]1OCCCC[C@H](C)Oc2ccc(NS(=O)(=O)c3ccc(F)cc3)cc2C(=O)N([C@H](C)CO)C[C@@H]1C
→ 22[16.7 µM]	18
COc1ccc(-c2ccc3c(c2)O[C@H](CN(C)Cc2ccccc2C(=O)O)[C@@H](C)CN([C@@H](C)CO)S3(=O)=O)cc1
→ -1[16.7 µM]	-7
C[C@@H]1CN([C@@H](C)CO)C(=O)c2cc(NC(=O)Nc3ccc4c(c3)OCO4)ccc2O[C@@H](C)CCCCO[C@H]1CN(C)Cc1ccccc1
→ 7[16.7 µM]	-8
COc1cccc(NC(=O)N[C@H]2CC[C@@H](CC(=O)N3CCN(C)CC3)O[C@H]2CO)c1
→ -3[16.7 µM]	5
Cc1noc(C)c1S(=O)(=O)N(C)C[C@H]1Oc2ccc(NS(=O)(=O)c3ccccc3)cc2CC(=O)N([C@@H](C)CO)C[C@H]1C
→ -5[16.7 µM]	-10
Cc1noc(C)c1NC(=O)N(C)C[C@@H]1Oc2ccc(NS(=O)(=O)c3ccccc3)cc2CC(=O)N([C@@H](C)CO)C[C@H]1C
→ 8[16.7 µM]	5
CC(=O)N(C)C[C@@H]1Oc2cc(C#CCN(C)C)ccc2S(=O)(=O)N([C@@H](C)CO)C[C@@H]1C
→ -11[16.7 µM]	-1
C[C@H]1CN([C@@H](C)CO)C(=O)c2cc(-c3ccc(F)cc3)cnc2O[C@H]1CN(C)C(=O)C1CCC1
→ 11[16.7 µM]	34
CN1C(=O)c2cc(NC(=O)c3cccc(F)c3)ccc2OC[C@H]2O[C@H](CC(=O)NCc3ccccc3)CC[C@@H]21
→ 6[16.7 µM]	19
C[C@@H]1CCCCO[C@@H](CN(C)C(=O)Nc2ccc(F)cc2)[C@H](C)CN([C@H](C)CO)C(=O)c2cc(NS(C)(=O)=O)ccc2O1
→ -16[16.7 µM]	10
CN(C)C(=O)[C@]1(CCS(=O)(=O)c2ccccc2)N=C(c2ccc(OCCCO)cc2)O[C@@H]1c1ccccc1
→ 3[16.7 µM]	-11
CCCC(=O)Nc1ccc2c(c1)OC[C@@H](C)N(C(=O)CC)C[C@H](C)[C@H](OC)CN(C)C2=O
→ 12[16.7 µM]	4
CN1C(=O)c2cc(NC(=O)c3ccc4c(c3)OCO4)ccc2OC[C@@H]2O[C@@H](CC(=O)O)CC[C@@H]21
→ 6[16.7 µM]	9
Cc1noc(C)c1S(=O)(=O)Nc1ccc2c(c1)C(=O)N([C@@H](C)CO)C[C@H](C)[C@H](CN(C)Cc1ccccc1)OCCCC[C@H](C)O2
→ -36[16.7 µM]	12
O=C(C[C@H]1C[C@H]2c3cc(NC(=O)NC4CCCC4)ccc3O[C@H]2[C@@H](CO)O1)NCC(F)(F)F
→ -5[16.7 µM]	2
CC(C)NC(=O)Nc1ccc2c(c1)C(=O)N([C@@H](C)CO)C[C@H](C)[C@@H](CN(C)C(=O)Nc1ccc(C(F)(F)F)cc1)O2
→ -4[16.7 µM]	2
C[C@@H]1CN([C@H](C)CO)C(=O)c2cccc(NC(=O)NC3CCCCC3)c2O[C@@H]1CN(C)C(=O)Nc1cccc2ccccc12
→ -3[16.7 µM]	24
COC(=O)C[C@@H]1CC[C@@H]2[C@H](COc3ccc(NC(=O)c4ccc(F)cc4)cc3C(=O)N2C)O1
→ 9[16.7 µM]	11
C[C@H]1CN([C@@H](C)CO)C(=O)c2cc(NC(=O)Cc3cn(C)c4ccccc34)ccc2O[C@@H]1CN(C)C(=O)NC1CCCCC1
→ 1[16.7 µM]	16
C[C@@H]1CCCCO[C@@H](CN(C)Cc2ccc(C(F)(F)F)cc2)[C@@H](C)CN([C@@H](C)CO)C(=O)c2cc(NC(=O)Nc3ccccc3)ccc2O1
→ 3[16.7 µM]	-3
CCC(=O)N1C[C@@H](C)[C@H](OC)CN(C)C(=O)c2ccc(NC(=O)COC)cc2OC[C@@H]1C
→ 12[16.7 µM]	-10
C[C@@H]1CN([C@@H](C)CO)C(=O)Cc2cc(NC(=O)NC3CCCCC3)ccc2O[C@H]1CN(C)S(=O)(=O)c1cn(C)cn1
→ -7[16.7 µM]	10
